High-throughput results (PubChem BioAssay)
Ba CapD inh – CapD enzyme inhibition; purified CapD enzyme, fluorescence intensity read-out; hits give low values; some hits fall short of the stated cut; 0.23% of 140,000 active; z-score (no concentration beside the values);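 active = z-score under -4 in either of two replicates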;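 also: stock transfer was 100 nL into about 40 µL; score is relative to mean and spread of the plate; one replicate is shown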
AID504770 – growth inhibitors of E. coli YBA685 in a screen for V. cholerae RctB (chromosome II replication) inhibitors. E. coli YBA685 rctB-dependent plasmid, OD600 growth, 3 h; hits give low values. z-score (test concentration not listed). 0.27% of 130,000 active. AID 504770;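 active = z-score under -2 on both plates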;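 also: wells of about 30 µL received 100 nL stock; score is relative to mean and SD of the test wells; the first replicate is given; strong numbers were not always called active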
Active calls of the source: *; . = not tested or not shown.

Molecule	Ba CapD inh	AID504770
CS(=O)(=O)n1c(SCC(=O)NCCc2ccccc2)nc2ccccc21	-0.28	.
O=C(CCSCc1ccccc1Cl)NCc1ccccc1Cl	14	-0.35
N#C/C(=C\c1cn(Cc2ccccc2)c2ccccc12)C(=O)NC1CC1	.	1.4
N#Cc1c(N2CCCC2)nsc1-c1ccccc1	0.33	.
COc1ccc(-c2cc(C)no2)cc1S(=O)(=O)N1c2ccccc2CC1C (stereo unspecified)	-2.5	4.1
CCOc1ccc(/C=C(\C#N)c2nc3ccccc3[nH]2)cc1	-0.035	.
Oc1ccccc1C=Nc1ccc2oc(-c3cccc(I)c3)nc2c1	-0.65	2.4
Cc1ccc(C)c(CN2CCN(c3ncc(C(F)(F)F)cc3Cl)CC2)c1	.	0.6
CC(C)(O)C1Cc2cc(/C=C/C(=O)O)c(O)cc2O1 (stereo unspecified)	.	-0.15
CC(C)(C)C(=O)CSc1cccc2cccnc12	82	-0.95
Cc1ccc(C2/C(=C(/O)c3ccccc3)C(=O)C(=O)N2c2ccc(F)cc2)cc1 (stereo unspecified)	0.18	.
COc1cc(-c2nc3ccccc3c(=O)[nH]2)cc(OC)c1OC	3.4	0.25
CCOc1ccc(/C=N/NC(N)=S)cc1	-2.4	.
O=C(Nc1ccccc1Cl)c1cc2c(s1)-c1ccccc1S(=O)(=O)C2	0.11	0.9
CCn1c(=O)c2ccccc2n(Cc2cccc(Cl)c2)c1=O	.	-1.7
CCN1CCN(C(=O)NC(C(=O)N[C@@H]2C(=O)N3[C@@H]2SC(C)(C)[C@@H]3C(=O)O)c2ccccc2)C(=O)C1=O (stereo partly specified)	1.4	0.15
COC(=O)c1scc(C#N)c1-n1cccc1	0.8	.
O=C(O)CSc1c2c(nc3cc(C(=O)NC4CCCCC4)ccc13)CCCC2	-0.13	-0.55
NC(=O)C[C@H](NC(=O)c1ccccc1Cl)C(=O)O	.	2.2
OC(COc1ccc(Cl)cc1Cl)CN1CCCCC1 (stereo unspecified)	.	-0.1
O=C(CSC1CCCC1)c1cccc(C(F)(F)F)c1	-0.9	0.4
CC(Sc1nnc(-c2ccc(Cl)cc2)n1Cc1ccco1)C(=O)NCCC1=CCCCC1 (stereo unspecified)	.	0
Cc1ccc2nc(CSc3nc4ccccc4n3C)cc(=O)n2c1	.	1.9
CC(NC(=O)COc1ccccc1)C(=O)N1CCC(=O)CC1 (stereo unspecified)	.	0.4
O=c1cc(CSc2ccc(Cl)cc2)nc2nc[nH]n12	0.005	2
O=C1CC(c2ccccc2)CC2=C1C(c1cc3c(cc1Br)OCO3)Nc1ccccc1N2 (stereo unspecified)	-0.14	.
CCCCc1cc2c(=O)c(-c3ccccn3)coc2cc1O	0.32	0.6
CC(=O)Nc1c(Cl)c(Cl)c(NC(C)=O)c2n[nH]nc12	0.3	-0.45
CC(C)CCNS(=O)(=O)c1cc(Br)cnc1N	-0.12	0.25
COc1cc(Br)c(C2C(C(=O)OC3CCCC3)=C(C)NC3=C2C(=O)CC(C)(C)C3)cc1OC (stereo unspecified)	29	.
CCOC(=O)c1cnn(C)c1NS(C)(=O)=O	-0.95	0.6
O=C(CC1Sc2ccccc2NC1=O)NNC(=O)OCCN1CCOCC1 (stereo unspecified)	-0.065	.
O=S(=O)(NCc1ccc2c(c1)OCO2)c1ccc(S(=O)(=O)NC2CCCCC2)cc1	.	-0.35
CS(=O)(=O)c1ccc(C(=O)Nc2ccccc2)cc1	-2.9*	-0.85
COc1ccc(-c2cc(C(F)(F)F)n3nc(C(C)(C)C)cc3n2)cc1	1.1	.
Cc1[nH]nc2nc(SCC(=O)NCCc3ccc(S(N)(=O)=O)cc3)n(-c3ccc(Oc4ccccc4)cc3)c(=N)c12	9.9	.
Nc1nnc(CC(=O)N2CCCC2)s1	.	1.5
O=C(OCc1ccccc1)N1CCOCCN(C(=O)OCc2ccccc2)CCOCC1	.	-0.1
Cc1cc(SCC2=NNC(=O)C2)c(C)cc1Cl	-0.21	.
CCOC(=O)c1c(C)oc2c1c(C=NC1CC(C)(C)NC(C)(C)C1)c(O)c1ccccc12	.	1
COc1cc(Br)c(CN2CCN(C(=O)OCCCc3ccccn3)CC2)cc1OC	0.29	.
NC(=O)N/C(CSc1ccc(Cl)cc1)=N\O	0.52	-1.3
NNC(=O)C1CCN(S(=O)(=O)c2ccccc2N)CC1	.	-0.4
O=C(c1cccc(S(=O)(=O)Nc2cc(C(F)(F)F)ccc2Cl)c1)N1CCN(c2ncccn2)CC1	.	-0.1
Cc1ccccc1C(=O)NCC1COc2ccccc2O1 (stereo unspecified)	.	-1.1

A different layout for 2 compounds above:
Values run as follows: Ba CapD inh, AID504770
CCOC(=O)c1cnn(C)c1NS(C)(=O)=O
 : -0.95, 0.6
O=C(CC1Sc2ccccc2NC1=O)NNC(=O)OCCN1CCOCC1 (stereo unspecified)
 : -0.065, .

Following part.
Molecule	Ba CapD inh	AID504770
Cc1ccc(C)c(NC(=O)COC(=O)c2ccc[n+]([O-])c2)c1	-0.06	0.6
Cc1ccsc1C(=O)Nc1cc(C(C)(C)C)nn1-c1ccccc1	.	-0.3
O=C(Cc1c(O)c2ccccc2oc1=O)c1ccc2c(c1)OCCO2	2	0.2
C(=N/n1cnnc1)/c1ccsc1	-0.47	-2.3
COCCNC(=O)c1cc(-c2ccc(Cl)cc2)cs1	-0.3	.
Cc1nnc(NN2CCOCC2)[nH]c1=O	11	.
CCOC(=O)CC(=O)CSc1nc2c(sc(=S)n2CCc2ccccc2)c(=O)n1Cc1ccco1	0.52	.
Cc1ccc2nc(-c3ccc(NC(=O)C(C)C)cc3)[nH]c2c1	108	-0.2
CSc1ncc(C(=O)NNC(=O)OCCc2cccc(F)c2)n1C	-1.1	.
COC(=O)c1ccccc1NC(=O)c1sc2ncnc(N3CCC(C)CC3)c2c1C	0.11	.
O=C(NC1CCCC1)c1ccc2c(c1)ncn2C1CCCCCC1	0.29	-3
Cc1c(C(=O)Nc2ccc(S(N)(=O)=O)cc2)oc2ccccc12	.	1.3
CC1(NC(=O)CN2CCCCC2c2nc3ccccc3s2)CCS(=O)(=O)C1 (stereo unspecified)	.	0
CCc1ccc(NC(=O)/C=C/c2ccco2)cc1	.	-0.7
Cc1ccc2[nH]c(=O)c(C3=NN(C(=O)c4ccco4)C(c4ccco4)C3)c(-c3ccccc3)c2c1 (stereo unspecified)	.	1.9
Cn1c(=O)n(CCOc2ccccc2)c2ccccc21	-0.1	-0.4
Clc1cc(N2CCOCC2)nc(N2CCOCC2)n1	0.18	.
CNC(=O)NC(=O)C(C)N1c2ccccc2NC(=O)C1CC(=O)Nc1ccc(C)cc1C (stereo unspecified)	.	0.65
CC(C)CC(NC(=O)CC12CC3CC(CC(C3)C1)C2)C(=O)O (stereo unspecified)	0.21	-0.3
COc1ccc(C2=NN(C(=O)CSc3nnc(CNC(=O)c4ccccc4F)n3C)C(c3ccc(OC)cc3)C2)cc1 (stereo unspecified)	1.2	.
COc1ccc(N=S2CC(C)=C(C)CN2S(=O)(=O)c2ccccc2)cc1 (stereo unspecified)	0.39	.
COC(=O)c1ccc(C)c(NC(=O)C(C)NC(=O)C(c2ccccc2)c2ccccc2)c1 (stereo unspecified)	0.045	1.5
Cc1nc(-c2noc(-c3cccc(Cl)c3)n2)c(C(F)(F)F)o1	0.26	1.2
CC1CCC(C)N1c1cc(C(F)(F)F)cc(C(F)(F)F)c1 (stereo unspecified)	2.3	1.1
CCCOc1ccc(/C(C)=N\NC(=O)c2nnn(-c3nonc3N)c2CSc2ccccc2)cc1OC	0.74	0.15
O=C(NC1CC1)c1ccc(CN(c2ccccc2)S(=O)(=O)c2ccccc2)cc1	0.23	0.1
Cc1ccc(C(=O)c2oc3ccc4c(C)cc(=O)oc4c3c2-c2ccccc2)cc1	-0.24	.
CCOC(=O)c1c(C)oc2c1c(O)c(N=O)c1ccccc12	.	-1.5
O=C1CSC2(C(=O)Nc3ccccc32)N1c1cccc(F)c1 (stereo unspecified)	0.07	.
COc1ccc(C(C#N)N2N=C(c3ccccc3)CC2c2ccccc2)cc1OC (stereo unspecified)	2.3	.
O=C(O)CC(CC(=O)O)c1ccc(C(F)(F)F)cc1	0.12	.
COc1ccc(OC)c(NC(=O)CC2Sc3ccccc3NC2=O)c1 (stereo unspecified)	0.45	1.1
COc1ccc(C2=NN(C(=O)CSc3nnc(CNC(=O)c4ccco4)n3C)C(c3ccc(OC)cc3)C2)cc1 (stereo unspecified)	1.4	.
COC(=O)C1=C(N)OC2=C(C(=O)CC(C)(C)C2)C1c1cccc(C)c1 (stereo unspecified)	-0.45	.
COC(=O)C1=CN(c2cc(C)cc(C)c2)C=C(C(=O)OC)C1c1ccc(OC)c(O)c1	0.76	0.4
O=C(c1ccc(F)cc1)N1CCN(c2ccc([N+](=O)[O-])c(N3CCCCC3)c2)CC1	-0.76	.
O=C(Nc1ccccc1I)c1ccnc(-n2cnnc2)c1	.	0.05
CCCN(CCC)C(=O)c1cc(S(=O)(=O)N2CCc3ccccc32)cn1C	-0.015	-0.1
CC1=CC(C)C2(COC(=O)NC3CCCCC3)COC(c3ccc4c(c3)OCO4)C1C2C (stereo unspecified)	-0.41	.
OCCCNc1c2c(nc3ccccc13)CCCC2	.	-0.55
Cc1cc(S(=O)(=O)N2CCN(C)CC2)c(C)cc1Cl	0.38	1.5
O=C(N/N=C/c1ccco1)c1nn(Cc2ccccc2)c(=O)c2ccccc12	.	-0.4
COc1ccc(-c2cc(NC(=O)Nc3ccccc3)n(-c3ccccc3)n2)cc1	1.1	0.85
CCOC(=O)CSc1nc(SCC(=O)OCC)c2c3c(sc2n1)COC(C)(C)C3	2.1	.
COc1ccc(Br)cc1C1SCC(=O)N1c1ccc(NC(C)=O)cc1 (stereo unspecified)	0.41	.

No new results follow: 4 of the compounds above.
Molecule	Ba CapD inh	AID504770
O=C(N/N=C/c1ccco1)c1nn(Cc2ccccc2)c(=O)c2ccccc12	.	-0.4
COc1ccc(-c2cc(NC(=O)Nc3ccccc3)n(-c3ccccc3)n2)cc1	1.1	0.85
CCOC(=O)CSc1nc(SCC(=O)OCC)c2c3c(sc2n1)COC(C)(C)C3	2.1	.
COc1ccc(Br)cc1C1SCC(=O)N1c1ccc(NC(C)=O)cc1 (stereo unspecified)	0.41	.

(continued)
Molecule	Ba CapD inh	AID504770
CCOc1cc(-c2nc3sc4c(c3c(=O)[nH]2)CCCC4)ccc1OCCOc1cccc(C)c1	-0.075	.
O=C(CN1CCN(c2ncccn2)CC1)NN=C(c1ccccc1)c1ccccc1	-0.52	.
COc1cc(C(=O)NCC(=O)OC(C)(C)C)nc(OC)n1	-0.05	.
Cc1ccccc1N1C(=O)c2ccccc2C1=O	-0.29	-1.4
Cc1cc(C)n(CC(=O)N/N=C/c2sc(N3CCCCC3)nc2-c2cccs2)n1	.	-0.75
CC(=O)Nc1ccc(N(CC(O)Cn2c3ccc(Cl)cc3c3cc(Cl)ccc32)S(=O)(=O)c2ccc(C)cc2)cc1 (stereo unspecified)	-0.05	.
CCCCNC(=S)Nc1ccc(C)cc1	0.33	0.1
O=C(Cn1cnc2c(nc3n2CCCCC3)c1=O)NC1CCCCCC1	0.86	-2.1*
COC(=O)CSc1nnc(CNC(=O)c2ccccc2F)n1Cc1ccccc1	0.49	-1.2
CC(=O)c1ccc(N2CCN(C(=O)CCCn3c(=S)[nH]c4ccc(Br)cc4c3=O)CC2)cc1	0.79	.
CNC(=S)NCC(c1ccco1)N1CCCCC1 (stereo unspecified)	.	-1
O=C(Cc1ccccc1)N1CCC(c2nc3ccccc3[nH]2)CC1	.	-0.35
CCOC(=O)CSc1ncc(C(F)(F)F)cc1Cl	-0.97	0.6
COCC(C)Nc1ncnc2c1c(-c1ccccc1)cn2-c1ccccc1 (stereo unspecified)	0.55	0
CS(=O)(=O)n1cc(C(=O)C(F)F)c2ccccc21	-0.01	1.8
N#CC1=C(N)OC2=C(C(=O)CC(c3ccccc3)C2)C12C(=O)Nc1ccc([N+](=O)[O-])cc12 (stereo unspecified)	-1.4	.
O=C(Nc1c[nH]c(=O)[nH]c1=O)c1ccco1	.	-1.1
O=C(CSc1nccc(-c2ccco2)n1)Nc1ccc(F)cc1F	0.65	0.35
CN(C)c1ccc(NC(=O)CSc2nnc(C3CC3)n2N)cc1	.	-1.2
CC1(C)CC(=O)C2=C(C1)c1c(ccc3ccccc13)NC2c1ccc(O)cc1 (stereo unspecified)	79	.
CC(=O)Oc1ccc(/C=N/NC(=O)c2ccc(S(N)(=O)=O)cc2)cc1	-0.91	.
COc1ccc(/C(N)=N/OC(=O)Oc2ccccc2)cc1	0.51	-0.45
CN(C)C(=O)NC(c1ccccc1)c1ccccc1	0.39	-0.55
CCOC(=O)c1c(/N=C/N(C)C)sc2c1CCC2	-2.4	2
O=C(CO/N=C/c1ccccc1O)N1CCc2ccccc21	.	1.6
CCCc1nn(C(=O)c2ccco2)cc1C(=O)OCC	0.82	-0.05

Six entries drawn at random from those above, as already listed:
Molecule	Ba CapD inh	AID504770
O=C(CO/N=C/c1ccccc1O)N1CCc2ccccc21	.	1.6
N#CC1=C(N)OC2=C(C(=O)CC(c3ccccc3)C2)C12C(=O)Nc1ccc([N+](=O)[O-])cc12 (stereo unspecified)	-1.4	.
COc1ccc(/C(N)=N/OC(=O)Oc2ccccc2)cc1	0.51	-0.45
CN(C)c1ccc(NC(=O)CSc2nnc(C3CC3)n2N)cc1	.	-1.2
CC1(C)CC(=O)C2=C(C1)c1c(ccc3ccccc13)NC2c1ccc(O)cc1 (stereo unspecified)	79	.
CC(=O)Oc1ccc(/C=N/NC(=O)c2ccc(S(N)(=O)=O)cc2)cc1	-0.91	.
